High-throughput results from PubChem.
VDR inh – vitamin D3 receptor (human) inhibition; Potency, µM, inactives show max response, negative = inhibition, usual class: inhibitors; actives 0.93% (n = 400,000); VDR-SRC2-3 peptide fluorescence polarization, 2 h; AID 504847; P11473; active = well fitted inhibition curve with a large enough effect; inconclusive = small, poorly fitted or top-dose-only effect, or another doubt; inactive = no such curve, though single readings can be large or run the other way; note: series mostly up to about 120 µM
Target sequence (P11473 whole entry, looked up): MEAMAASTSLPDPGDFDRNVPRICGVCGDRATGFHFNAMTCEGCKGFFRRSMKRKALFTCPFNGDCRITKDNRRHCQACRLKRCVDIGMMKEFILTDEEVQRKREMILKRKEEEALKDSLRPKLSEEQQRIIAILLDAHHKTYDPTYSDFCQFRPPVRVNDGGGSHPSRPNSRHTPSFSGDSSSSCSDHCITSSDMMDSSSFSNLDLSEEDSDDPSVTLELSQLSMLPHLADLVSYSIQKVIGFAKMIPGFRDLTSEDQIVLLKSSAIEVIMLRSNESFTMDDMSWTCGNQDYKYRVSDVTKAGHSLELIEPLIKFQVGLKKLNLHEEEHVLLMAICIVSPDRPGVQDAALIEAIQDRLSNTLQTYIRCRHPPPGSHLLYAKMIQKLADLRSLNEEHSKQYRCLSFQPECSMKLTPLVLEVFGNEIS
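Signal is fluorescence polarization, reporting how far test compounds block the interaction of VDR with the SRC2-3 coregulator peptide after a 2 h room-temperature incubation.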
Starred values were filed as active, the others as inactive; u = inconclusive. % is set by controls: 0 for no effect and ±100 for the full control effect; potency is the fitted concentration of half-maximal effect.

VDR inh | SMILES
-7.6% | CCn1c(=O)cc(OCC(=O)Nc2ccc3c(c2)OCCO3)c2ccccc21
3.7% | CCc1ccccc1NC(=O)Nc1cc(F)ccc1F
-9.0% | CCC(C)c1ccccc1NC(=O)C1CCCO1 (stereo not drawn)
u | N#Cc1c(NC(=S)NC(=O)c2ccccc2)sc2c1CCCC2
-12.2% | Cc1ccc(C(=O)NCC#N)cc1
11.1% | Cc1ccc(NS(=O)(=O)c2cc(C(=O)NCc3ccccn3)ccc2Cl)cc1C
4.4% | CCCNC(=O)c1ccc(N2CC3CC(C2)c2cccc(=O)n2C3)c(NC(=O)Nc2ccc(CC)cc2)c1 (stereo not drawn)
-1.7% | CSc1nnc2c(n1)OC(c1ccsc1)N(C(C)=O)c1ccccc1-2 (stereo not drawn)
-1.9% | CC(C)OCCCNC(=O)C1CCN(S(=O)(=O)N2CCCC2)CC1
-5.4% | CC(=O)Nc1ccc(Nc2cc(N3CCOCC3)c3nonc3c2[N+](=O)[O-])cc1
1.1% | Cc1cccc(C(=O)OCC(=O)N2CCCCCC2)c1O
19.8% | Nc1ccc(C23CC4CC(CC(O)(C4)C2)C3)cc1
4.9% | COc1cc(/C=C2\SC(=S)N(NC(=O)c3ccc(O)c(OC)c3)C2=O)ccc1O
-5.2% | COc1ccc(C(=O)Nc2ccncc2)c(OC)c1
-1.4% | CCOc1ccc(NC(=O)c2cc3c(C)nn(-c4ccccc4)c3s2)cc1
0.9% | Cc1cc(N(C)C)c(C#N)c(N2CCCCC2)n1
11.8% | CC(C)CN(C(=O)COC(=O)c1nc(Cl)ccc1Cl)C1CCS(=O)(=O)C1 (stereo not drawn)
12.1% | COc1cccc(/C=C/C(=O)OCC(=O)Nc2ccccc2Sc2ccccc2)c1
-0.9% | COCCn1c(=O)c(CCc2ccccc2)nc2cnc(Nc3cccc(OC)c3)nc21
-27.0% | CC(=O)Nc1c(-c2ccc(F)cc2)nc2ccccn12
-20.9% | CCOc1cc(/C=N/NC(=O)c2ccc3c(c2)OCCO3)cc(Br)c1O
1.5% | O=C(O)c1ccc(OCC(O)Cn2cnc3ccccc32)cc1 (stereo not drawn)
15.3% | Cc1ccccc1C(=O)Nc1ccccc1N1CCN(C(=O)c2ccccc2)CC1
-7.2% | CCN(Cc1ccccc1)C(=O)c1ccc2c(=O)n3c(nc2c1)CCC3
16.0% | COc1ccccc1-c1noc(-c2ccccc2C(=O)Nc2cccnc2)n1
-4.8% | Cc1ccccc1NC(=O)c1onc2c1CCCC2
-1.6% | CSc1ccc(CN2CCC(CO)(CCOc3ccccc3)CC2)cc1
-12.3% | COc1ccccc1NS(=O)(=O)c1cccc(C(=O)N2CCCCCCC2)c1
-18.5% | Brc1ccc(-c2csc(-c3ccncc3)n2)cc1
2.1% | CS(=O)(=O)N1CCCC(C(=O)NCc2ccc(F)cc2)C1 (stereo not drawn)
0.4% | CCn1c(CN2CCOCC2)nc2cc(NC(=O)c3ccc([N+](=O)[O-])cc3)ccc21
5.9% | O=C(CCn1nc(-c2ccc(Cl)cc2)c2ccccc2c1=O)Nc1cccnc1
2.7% | CCOc1ccccc1NC(=O)CSc1nc2nc(-c3cccs3)cc(C(F)(F)F)c2c(=O)[nH]1
4.5% | O=C(CSc1ccc(-c2cccs2)nn1)NCCc1ccccc1
-7.4% | Cc1ccc(NC2CCCN(C(=O)c3cn(C)c4ccccc34)C2)cc1C (stereo not drawn)
0.6% | COc1cc(OC)cc(C(=O)N[C@H](C(=O)OCC(=O)c2c[nH]c3ccccc23)C(C)C)c1
2.1% | O=C(NNS(=O)(=O)c1ccccc1)c1cccc([N+](=O)[O-])c1
-0.6% | Cc1c(NC(=S)N/C(=N/S(=O)(=O)c2ccccc2)c2ccccc2)c(=O)n(-c2ccccc2)n1C
-1.9% | COc1ccc(OC)c2sc(N(CCN(C)C)C(=O)c3ccc4ccccc4c3)nc12
14.4% | CC(=O)n1cc([C@H]2C=C(C(=O)NCc3ccccc3)O[C@@H](OCCCCO)C2)c2ccccc21
-8.6% | O=C(Cc1cccc(C(F)(F)F)c1)Nc1cc(S(=O)(=O)N2CCOCC2)ccc1N1CCCC1
2.2% | CC(/C=N/NC(=O)c1ccc2nc(C)[nH]c2c1)=C\c1ccccc1
-6.1% | CC(Nc1nc(Cl)nc2nc[nH]c12)c1ccccc1 (stereo not drawn)
-2.8% | CCOc1ccccc1NC(=O)CSc1cn(CC(=O)N2CCCCCC2)c2ccccc12
-18.5% | CC(C)n1c(/N=C/c2ccccc2O)nc2ccccc21
u | CC(=O)N1CCC2(CCCN(Cc3ccccc3)C2)CC1
-26.6% | CC1=C(C(=O)Nc2ccccc2C)C(c2ccncc2)n2nc(SCc3ccccc3)nc2N1 (stereo not drawn)
-2.5% | COc1ccc(NC(=O)CSCC(=O)Nc2ccccc2C(=O)N2CCCCC2)cc1
23.7% | CCOC(=O)C(=NC(C)C)NNc1cc(Cl)ccc1Cl
u | CC(C)(C)c1ccc(C(=O)NNc2ccc(F)cc2F)cc1

Entries listed so far with a Cl atom (5):
VDR inh | SMILES
11.1% | Cc1ccc(NS(=O)(=O)c2cc(C(=O)NCc3ccccn3)ccc2Cl)cc1C
11.8% | CC(C)CN(C(=O)COC(=O)c1nc(Cl)ccc1Cl)C1CCS(=O)(=O)C1 (stereo not drawn)
5.9% | O=C(CCn1nc(-c2ccc(Cl)cc2)c2ccccc2c1=O)Nc1cccnc1
-6.1% | CC(Nc1nc(Cl)nc2nc[nH]c12)c1ccccc1 (stereo not drawn)
23.7% | CCOC(=O)C(=NC(C)C)NNc1cc(Cl)ccc1Cl

The listing continues:
VDR inh | SMILES
-4.3% | CC(=O)N(C)c1nc(N)n(-c2ccccc2)n1
3.9% | CCC1Nc2ccccc2-c2nnc(SC)nc2O1 (stereo not drawn)
44.7µM* | CCOC(=O)/C(=C\c1cccc(O)c1)c1nc2sc(C)c(C)c2c(=O)[nH]1
-4.4% | NS(=O)(=O)c1cccc(NC(=O)Nc2ccccc2)c1
-7.8% | Cc1c(Br)c([N+](=O)[O-])nn1CC(=O)NCCc1ccc(Cl)cc1
8.0% | COc1cc(C(=O)Nc2ccc3c(c2)OCCO3)c(-n2cnnn2)cc1OC
19.3% | COc1cccc(-c2cc(-c3cccnc3)c(C#N)c(N)n2)c1
14.7% | CC(=O)c1ccc(S(=O)(=O)N2CCN(C(=O)CSc3ccc(F)cc3)CC2)cc1
-5.8% | COc1ccc(C(=O)Nc2nc(-c3nnn(-c4ccc(F)cc4F)c3C)ns2)cc1
3.6% | CCOC(=O)CSc1nnc(CNC(=O)c2ccc(S(=O)(=O)N3CCCC3)cc2)n1C
u | CN1Cc2sc(NC(=S)NC(=O)c3ccccc3)c(C#N)c2CC1(C)C
-9.6% | CC(C)C[C@@H](CN)NC(=O)c1nc[nH]c1C(=O)N[C@@H](Cc1ccccc1)C(=O)CNC[C@H](C)NC(=O)c1nc[nH]c1C(=O)N[C@@H](C)C(=O)O
21.4% | CC1(C)C2C(Cl)(Cl)C2(C)c2ccccc2N1C=O (stereo not drawn)
4.5% | CCCCNC(=O)c1cc(-c2ccc(OC)cc2)nc2n[nH]c(-c3cccc([N+](=O)[O-])c3)c12
5.0% | COc1cccc(OCC(=O)NNC(=O)c2cccs2)c1
4.7% | COc1ccc(-c2nc3cccc(C)n3c2NCc2ccco2)cc1OC
-8.4% | Cc1cccc(C)c1OCC(=O)NCC1CCCO1 (stereo not drawn)
u | N#CC1=C(N)C(C#N)(C#N)[C@H](c2ccsc2)[C@H]2COCC=C12
-2.1% | Cc1ccc(NC(=O)C2CCCN(S(=O)(=O)c3ccc(F)cc3)C2)cc1 (stereo not drawn)
-23.0% | COc1ccc(NCc2nc3ccccc3n2CCOc2ccccc2)cc1
4.3% | O=C(O/N=C1/CCCc2occc21)c1ccccc1
-15.9% | CCN(CC)S(=O)(=O)c1ccc(N2CCOCC2)c(NC(=O)C(C)(C)C)c1
3.2% | COc1cccc(C(=O)Nc2nc3c(s2)CCCC3)c1
-20.3% | c1ccc(C2CCCN(Cc3nc(CC4CC4)no3)CC2)cc1 (stereo not drawn)
-22.3% | Cc1nn(Cc2ccccc2)c2c1C(c1cccnc1)C(C#N)=C(N)O2 (stereo not drawn)

Some of these compounds in order of length of the SMILES, ascending.
VDR inh | SMILES
-4.3% | CC(=O)N(C)c1nc(N)n(-c2ccccc2)n1
-2.1% | Cc1ccc(NC(=O)C2CCCN(S(=O)(=O)c3ccc(F)cc3)C2)cc1 (stereo not drawn)
u | N#CC1=C(N)C(C#N)(C#N)[C@H](c2ccsc2)[C@H]2COCC=C12

Structures listed so far printed as active in VDR inh.
VDR inh | SMILES
44.7µM* | CCOC(=O)/C(=C\c1cccc(O)c1)c1nc2sc(C)c(C)c2c(=O)[nH]1

The list continues.
VDR inh | SMILES
11.0% | Cc1ccccc1NC(=S)N(Cc1ccccc1)Cc1cccs1
10.1% | Cc1ccc(-c2csc(NC(=O)C3=NN(C4CCS(=O)(=O)C4)C(=O)CC3)n2)cc1 (stereo not drawn)
-10.1% | CCN(CC(=O)Nc1ccc(NC(C)=O)cc1)C(=O)/C=C/c1cn(-c2ccccc2)nc1-c1cccs1
13.1% | COc1ccccc1NC(=O)Cn1c(=O)oc2cc(S(=O)(=O)NCc3ccccc3)ccc21
-7.2% | NC(=O)c1ccc(N2CCNC(=O)C2)c([N+](=O)[O-])c1
-5.1% | O=C(CCCn1c(SCc2cccc(F)c2)nc2ccccc2c1=O)NCC1CCCO1 (stereo not drawn)
u | COc1oc(C(=O)NC2CCCCC2)c(-c2ccc(Cl)cc2)c1S(=O)(=O)c1ccccc1
10.2% | Cn1c(CCNC(=O)c2cccs2)nnc1SCC(=O)Nc1nc(-c2ccccc2)cs1
-22.9% | O=C(O)c1ccc(OS(=O)(=O)c2ccc(Cl)s2)cc1
-0.1% | COCc1cc(C)nc2c1C(=O)NC(c1ccc(Br)cc1)N2Cc1ccccc1 (stereo not drawn)
-17.8% | CCn1nnnc1SCC(=O)Nc1nnc(C(C)C)s1
-7.4% | Cc1ccc(CNC(=O)Cn2cnc3cc([N+](=O)[O-])ccc3c2=O)cc1
-7.7% | C[C@@]12CCC[C@@](C)(C(=O)O)C1CC[C@@]13C[C@@H](NCc4ccccc4)[C@@](C)(CCC12)C3 (stereo partly drawn)
-2.5% | COC(=O)c1[nH]c2ccc(Cl)cc2c1NC(=O)CN1CCc2cc(OC)c(OC)cc2C1
-7.0% | Cc1ccccc1-n1c(N)c(C(=O)Nc2ccc(F)cc2)sc1=S
-16.7% | COc1ccc(CCN(C)C2CCCN(C(=O)CCC(F)(F)F)C2)cc1OC (stereo not drawn)
-3.1% | CCCNC(=O)c1n[nH]c(=O)c2ccccc12
9.7% | O=C(c1ccc(F)cc1)N1c2ncnn2C2(CCCCC2)[C@@H]2CCCC[C@@H]21
-15.6% | CC(=O)c1cccc(NC(=O)Cn2nc(-c3ccc(Cl)cc3)ccc2=O)c1
-20.2% | CCOC(=O)[C@H]1[C@H]2COc3cc(OC)ccc3[C@@H]2N2C(=O)CN(Cc3ccc(Cl)cc3)C(=O)[C@@]12C
-24.1% | O=C(Nc1ccc(Cl)cn1)C1CCCN(c2ncnc3c2nc2n3CCCCC2)C1 (stereo not drawn)
-17.3% | CN(CC(=O)Nc1ccccc1Br)C(=O)C(Cc1ccccc1)NC(=O)c1ccccc1 (stereo not drawn)
-17.1% | COc1ccccc1CNC(=O)c1cc(S(=O)(=O)N2CCN(c3ccccc3)CC2)ccc1Cl
-6.0% | CCOc1ccccc1C(=O)NN1C(=O)CCC1=O
22.3% | CCOc1ccc(NC(=O)COc2ccc(-n3cnnn3)cc2)cc1
-13.5% | CCOC(=O)CN1C(=O)N[C@@H](CCc2ccccc2)[C@H](C(=O)OC)[C@H]1C
-1.4% | CC(SCC(=O)Nc1ccccc1Br)c1nc2ccccc2c(=O)[nH]1 (stereo not drawn)
3.0% | Cc1ccc(C)c(NC(=S)N2CCN(S(C)(=O)=O)CC2)c1
-8.4% | CCOc1ccc(CNC(=O)CCCn2ccc3cc(S(=O)(=O)N4CCCC4)ccc32)cc1
19.8% | C=CCOc1nc2c(c(=O)n(Cc3ccc(Cl)c(Cl)c3)c(=O)n2C)n1C
-8.7% | Cc1ccc(/C=C/C(=O)Nc2cccc(S(=O)(=O)N3CCOCC3)c2)o1
-12.0% | O=C(Nc1cccc(-c2nc3cccnc3s2)c1)c1ccco1
-9.7% | CCOC(=O)Cc1csc(NC(=O)CC(C)(C)CC(=O)O)n1
-1.4% | CSc1nc(C)cc(C)c1C#N
-12.8% | CC(=O)Nc1ccc2c(c1)nc1n2CCN(C(C)c2ccccc2)C1 (stereo not drawn)
-2.1% | CCOC(=O)[C@@H]1[C@H]2COc3cc(OC)ccc3[C@H]2N2C(=O)N(c3cccc(F)c3)C(=O)[C@@]12C
-19.0% | Cc1cc(NCCCn2ccnc2)n2ncc(-c3ccc(Cl)cc3)c2n1
-26.2% | COC(=O)Nc1nnc(-c2ccncc2)s1
13.6% | COc1ccccc1CNC(=O)CCc1c(C)c2ccc(OC)c(C)c2oc1=O
-3.6% | Cc1cccc(NC(=O)CSc2nnc(NC(=O)CN3CCOCC3)s2)c1
-1.9% | O=c1cc(-c2ccccc2)nc(Cc2c(Cl)cccc2Cl)[nH]1
-15.0% | COc1cccc(NC(=O)CSc2nnc3c(n2)[nH]c2ccc(C)cc23)c1
u | CC(C)NCc1c(O)c(Br)cc2oc3c(c12)CCCC3
-24.2% | Cn1cnc([N+](=O)[O-])c1S(=O)(=O)Nc1ccccc1

Taken from above (five entries):
VDR inh | SMILES
-3.6% | Cc1cccc(NC(=O)CSc2nnc(NC(=O)CN3CCOCC3)s2)c1
-1.9% | O=c1cc(-c2ccccc2)nc(Cc2c(Cl)cccc2Cl)[nH]1
-15.0% | COc1cccc(NC(=O)CSc2nnc3c(n2)[nH]c2ccc(C)cc23)c1
u | CC(C)NCc1c(O)c(Br)cc2oc3c(c12)CCCC3
-24.2% | Cn1cnc([N+](=O)[O-])c1S(=O)(=O)Nc1ccccc1

A portion of the library, so the mix of outcomes need not match the whole.
